Compound activity from PubChem.
A1 inhib – inhibitors of A1; MEF A1-2A-BIM cells, caspase-Glo luminescence, 3 h; percent of clofoctol signal, DMSO as zero; 0.51% of 21,000 active; caspase activation, % (no concentration beside the values);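 active means most replicate scores above 10, or exactly half above 10 with mean activity above 10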;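 further: effector caspase 3 and 7 activity cleaving a DEVD luciferin substrate; 50 nL library stock added to about 30 µL; numbers are from one replicate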
BJeLR viability – lowers viability of BJeLR cells; BJeLR fibroblasts viability, CellTiterGlo ATP luminescence, 48 h; HRASV12, hTERT and SV40 LT/ST transformed; viability loss activity score, % (test concentration not listed); 0.64% of 30,000 active; in the data active means viability loss activity score above about 50%; about a fifth of its hits are not listed in these tables;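 further: higher score means fewer live cells and less ATP luminescence; stock transfer was 50 or 100 nL into about 30 µL; 0% = vehicle wells and 100% = a reference killing control; one replicate is shown; the record names a cut of 85%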
* hit, by the source's call; x = not tested or not shown.

SMILES	A1 inhib	BJeLR viability
C[C@@H]1CN([C@H](C)CO)C(=O)c2cc(NS(=O)(=O)c3ccc(Cl)cc3)ccc2O[C@H]1CN(C)Cc1ccncc1	0.3	0.7
COc1ccc(C(=S)N2CCC(C)CC2)cc1	-0.1	-6.8
C[C@@H]1CN([C@@H](C)CO)C(=O)c2cccc(NC(=O)C3CC3)c2O[C@H]1CN(C)C(=O)Nc1ccc2c(c1)OCO2	x	0.7
C[C@H](CO)N1C[C@H](C)[C@@H](CN(C)Cc2ccc(Cl)c(Cl)c2)Oc2c(NC(=O)Nc3ccc4c(c3)OCO4)cccc2C1=O	x	1.5
O=C(Nc1cc2ccccc2oc1=O)c1ccc(Cl)cc1	-4.9	9.1
C[C@H]1CN([C@@H](C)CO)C(=O)c2cc(NS(=O)(=O)c3ccccc3)ccc2O[C@@H]1CN(C)CC1CCCCC1	0.5	1.5
C[C@H](CO)N1C[C@H](C)[C@H](CN(C)Cc2ccc(Cl)c(Cl)c2)Oc2ccc(NC(=O)CCN3CCOCC3)cc2C1=O	-0.5	2.4
Cc1noc(C)c1NC(=O)N(C)C[C@@H]1Oc2c(NS(=O)(=O)c3cn(C)cn3)cccc2C(=O)N([C@@H](C)CO)C[C@@H]1C	x	0.8
C[C@H](CO)N1C[C@H](C)[C@H](CN(C)S(=O)(=O)c2ccccc2)Oc2ccc(NC(=O)CCCCCC(=O)Nc3ccccc3N)cc2C1=O	x	-3.8
C[C@H]1CN([C@@H](C)CO)C(=O)c2cccc(NC(=O)c3nc4ccccc4s3)c2O[C@@H]1CN(C)Cc1ccc(-c2ccccc2)cc1	x	1.5
CCOc1ccc(CC2C(=O)NC(=O)N(Cc3ccccc3)C2=O)cc1 (stereo unspecified)	0.2	3.7
COc1ccc(/C=C2/SC(=S)N(CCC(=O)O)C2=O)cc1	-6.8	-2.3
CSc1cccc(NC(=O)c2ccc3snnc3c2)c1	-2.9	3.3
O=C(NCc1cc(F)cc2c1OCOC2)c1ccc2nonc2c1	1.4	5.3
O=C(Nc1cc(Cl)cc(Cl)c1)c1cc(S(=O)(=O)N2CCCc3ccccc32)ccc1F	-1.3	5.8
Oc1ccccc1-c1cc(-c2ccc3c(c2)OCO3)cc(-c2ccccc2)n1	0.2	-5.7
CN1CCN(C2=Cc3ccccc3Oc3ccc(Cl)cc32)CC1	0.7	1.9
FC(F)(F)c1ncncc1-c1nnnn1-c1ccccc1	-0.2	1.2
C[C@H]1CN([C@@H](C)CO)C(=O)c2cc(NC(=O)Cc3ccccc3)ccc2O[C@H]1CN(C)Cc1ccc(Oc2ccccc2)cc1	0.4	-0.2
COC(=O)c1ccc2c(=O)n(CCC3=CCCCC3)c(SCc3ccc(Cl)cc3)nc2c1	-0.3	-2.4
Cc1c(C(N)=O)cc([N+](=O)[O-])cc1[N+](=O)[O-]	-0.6	-2.3
C[C@H](CO)N1C[C@H](C)[C@H](CN(C)C(=O)Nc2cccc3ccccc23)Oc2c(NC(=O)Nc3ccc4c(c3)OCO4)cccc2C1=O	x	0.5
C[C@H](CO)N1C[C@H](C)[C@H](CN(C)Cc2ccncc2)Oc2c(NC(=O)C3CCOCC3)cccc2C1=O	x	1.2
O=C(/C=C/c1ccccc1)Oc1ccc2oc(=O)sc2c1	-4.6	0.2
C[C@H](CO)N1C[C@H](C)[C@H](CN(C)C)Oc2c(NC(=O)NC3CCCCC3)cccc2C1=O	x	0.4
C[C@@H]1CN([C@H](C)CO)C(=O)c2cccc(NS(=O)(=O)c3cn(C)cn3)c2O[C@@H]1CN(C)C(=O)NC1CCCCC1	x	1.3
COc1cccc(/C=C2/NC(=O)N(Cc3ccc(F)cc3)C2=O)c1	2.1	-4.4
CN(C)C(=O)Nc1ccc(Cl)c(Cl)c1	0.2	-2.0
COC(=O)c1ccc(-c2ccco2)n1Cc1ccccc1	-0.5	0.0
C[C@H](CO)N1C[C@H](C)[C@@H](CN(C)C(=O)Nc2ccc(C(F)(F)F)cc2)Oc2c(NC(=O)c3nc4ccccc4s3)cccc2C1=O	x	-1.4
NC(=O)c1ccccc1NC(=O)CC(c1ccccc1)c1ccccc1	0.3	6.8
C[C@@H]1CN([C@@H](C)CO)C(=O)c2cc(NS(=O)(=O)c3ccccc3)ccc2O[C@@H]1CN(C)S(=O)(=O)c1ccc(F)cc1	0.3	2.5
Cc1noc(-c2ccc3c(c2)OCO3)c1I	-1.8	0.0
COC(=O)c1sccc1NS(=O)(=O)c1ccc(C(=O)OC)n1C	x	5.0
O=c1oc2ccccc2cc1-c1ccc(Cl)cc1	-4.6	0.9
O=C(NCCc1ccccc1)c1ccc2nc(-c3cccs3)c(-c3cccs3)nc2c1	0.9	6.1
COc1ccc(-c2cc(=O)c3c(O)c(OC)c(O[C@H]4O[C@H](CO[C@@H]5O[C@@H](C)[C@H](O)[C@@H](O)[C@H]5O)[C@@H](O)[C@H](O)[C@H]4O)cc3o2)cc1	0.9	-2.0
O=C(O)CCC(=O)Nc1cccc(F)c1	0.2	-1.0
C[C@@H]1CN([C@@H](C)CO)C(=O)c2cc(NC(=O)Nc3ccc(C(F)(F)F)cc3)ccc2O[C@@H]1CN(C)C	-0.7	-0.2
CC(C)NC(=O)Nc1cccc2c1O[C@@H](CN(C)Cc1ccncc1)[C@@H](C)CN([C@H](C)CO)C2=O	x	1.2
C[C@H]1CN([C@@H](C)CO)C(=O)c2cccc(NC(=O)NC3CCCCC3)c2O[C@@H]1CN(C)C(=O)Nc1ccc(C(F)(F)F)cc1	x	-3.3
CC(C)NC(=O)N(C)C[C@@H]1Oc2ccc(NC(=O)CCCCCC(=O)Nc3ccccc3N)cc2C(=O)N([C@@H](C)CO)C[C@H]1C	x	-3.3
C[C@H]1CN([C@@H](C)CO)C(=O)c2cc(NC(=O)CCN3CCOCC3)ccc2O[C@H]1CN(C)Cc1ccc(C(F)(F)F)cc1	0.8	-2.0
C[C@@H]1CN([C@@H](C)CO)C(=O)c2cccc(NS(=O)(=O)c3ccc(Cl)cc3)c2O[C@H]1CN(C)S(=O)(=O)c1ccc(Cl)cc1	x	-1.0
C[C@H]1CN([C@@H](C)CO)C(=O)c2cc(NS(=O)(=O)c3cn(C)cn3)ccc2O[C@@H]1CN(C)Cc1ccc(C(=O)O)cc1	0.0	2.3
Cc1ccc(S(=O)(=O)Nc2ccc3c(c2)C(=O)N([C@H](C)CO)C[C@H](C)[C@H](CN(C)C(=O)Nc2ccc4c(c2)OCO4)O3)cc1	0.5	0.4
CC1CCCN(C2CCN(Cc3ccccc3Cl)CC2)C1 (stereo unspecified)	0.9	-2.3
COc1ccc(NC(=O)N(C)C[C@H]2Oc3c(NS(=O)(=O)c4ccccc4)cccc3C(=O)N([C@@H](C)CO)C[C@@H]2C)cc1	x	-2.8
CC1=Nc2cc(C(=O)NCc3ccc(C)cc3)ccc2Sc2ccccc21	x	-11
COc1ccc(NC(=O)N(C)C[C@H]2Oc3ccc(NC(=O)NC4CCCCC4)cc3C(=O)N([C@@H](C)CO)C[C@@H]2C)cc1	-1.3	2.9

New compounds follow
SMILES	A1 inhib	BJeLR viability
C[C@H]1CN([C@@H](C)CO)C(=O)c2cc(NC(=O)Cc3ccccc3)ccc2O[C@@H]1CN(C)C(=O)Nc1ccc2c(c1)OCO2	1.2	-3.7
CNC[C@@H]1Oc2ccc(NS(=O)(=O)c3ccccc3)cc2C(=O)N([C@H](C)CO)C[C@@H]1C	0.2	0.0
COc1ccc(C(=C2C(=O)Nc3ccccc32)c2ccc(OC)cc2)cc1	0.4	3.6
CC(C)(C)c1ccc(NC(=O)c2ccc(C(C)(C)C)s2)cc1	0.1	1.8
O=C(COC(=O)c1ccc(Cl)cc1NC(=O)c1ccc(Cl)cc1)c1ccccc1	-0.2	-3.2
CCCCC(C(N)=O)C1=NC(C)(C)Cc2ccccc21 (stereo unspecified)	0.6	-3.7
COCCC(=O)C1=CSC2=C(C(=O)CC(C)(C)C2)C1c1ccncc1 (stereo unspecified)	-0.2	9.2
C[C@@H]1CN([C@@H](C)CO)C(=O)c2cc(NS(=O)(=O)c3ccc(Cl)cc3)ccc2O[C@@H]1CN(C)Cc1ccc2c(c1)OCO2	0.3	2.7
O=C1NC(=S)S/C1=C\C=C\c1ccccc1	-6.3	16
COc1cc2c(c(N)c1OC)C(=O)/C(=C/c1cc(C)c(O)c(C)c1)C2	0.5	22
Cn1c(-c2ccc3c(c2)OCO3)cc(=O)c2ccccc21	0.2	1.0
Cc1noc(C)c1S(=O)(=O)Nc1ccc2c(c1)C(=O)N([C@@H](C)CO)C[C@H](C)[C@@H](CN(C)S(=O)(=O)c1ccc(F)cc1)O2	0.0	-0.6
C[C@H]1CN([C@@H](C)CO)C(=O)c2cc(NS(=O)(=O)c3ccc(Cl)cc3)ccc2O[C@H]1CN(C)C(=O)NC1CCCCC1	-0.2	-3.1
COc1ccc(S(=O)(=O)N(C)C[C@@H]2Oc3c(NC(=O)Nc4ccc5c(c4)OCO5)cccc3C(=O)N([C@@H](C)CO)C[C@@H]2C)cc1	x	-6.7
CC(C)CCNC(=O)C1c2ccccc2Oc2ccccc21	0.5	0.7
C[C@@H]1CN([C@@H](C)CO)C(=O)c2cccc(NC(=O)c3ccncc3)c2O[C@@H]1CN(C)Cc1ccncc1	x	-0.9
COC(=O)C(CC(C)C)NC(=O)c1cc(-c2ccccc2)nc2ccccc12 (stereo unspecified)	x	0.7
Cc1noc(C)c1S(=O)(=O)Nc1cccc2c1O[C@@H](CN(C)S(=O)(=O)c1ccc(Cl)cc1)[C@@H](C)CN([C@H](C)CO)C2=O	x	2.4
Cc1noc(C)c1S(=O)(=O)Nc1ccc2c(c1)C(=O)N([C@@H](C)CO)C[C@H](C)[C@H](CN(C)C(=O)Nc1ccc(F)cc1)O2	0.7	1.3
C[C@H](CO)N1C[C@H](C)[C@H](CN(C)S(=O)(=O)c2ccc(Cl)cc2)Oc2c(NC(=O)c3ccc(-c4nccs4)cc3)cccc2C1=O	x	-0.1
O=C(Cn1ncc2c3ccccc3n(Cc3ccccc3)c2c1=O)NC1CC1	-0.8	0.9
O=C(O)CCCC(=O)Nc1ccccc1SCc1noc(-c2cccs2)n1	-0.1	-2.0
C[C@@H]1CN([C@H](C)CO)C(=O)c2cc(NC(=O)Nc3ccc(C(F)(F)F)cc3)ccc2O[C@H]1CN(C)CC1CCCCC1	-0.3	6.2
COc1ccc(CN(Cc2cc(OC)c(OC)c(OC)c2)C(=O)C(C)(C)C)cc1	0.8	-0.1
C[C@@H]1CN([C@H](C)CO)C(=O)c2cccc(NC(=O)C3CC3)c2O[C@H]1CN(C)Cc1ccc2c(c1)OCO2	x	-3.9
C[C@@H]1CN([C@H](C)CO)C(=O)c2cccc(NC(=O)Nc3ccc(F)cc3)c2O[C@H]1CN(C)C(=O)NC1CCCCC1	x	0.0
CCCCC/C=C\C/C=C\CCCCCCCC(=O)OCC(O)CO (stereo unspecified)	-0.4	-0.1
S=C(NCCN1CCOCC1)Nc1ccc(Cl)cc1	0.3	-4.1
NNC(=O)c1cc(COc2c(Cl)cccc2Cl)on1	0.8	-1.3
COc1ccc(NC(=S)NCC2CCCO2)cc1 (stereo unspecified)	0.4	2.2

Copied from the list:
C[C@H](CO)N1C[C@H](C)[C@H](CN(C)C)Oc2c(NC(=O)NC3CCCCC3)cccc2C1=O | BJeLR viability: 0.4
Cn1c(-c2ccc3c(c2)OCO3)cc(=O)c2ccccc21 | BJeLR viability: 1.0

Going on with the list:
SMILES	A1 inhib	BJeLR viability
C[C@@H]1CN([C@@H](C)CO)C(=O)c2cccc(NC(=O)Nc3ccccc3)c2O[C@H]1CN(C)C(=O)Nc1ccc(F)cc1	x	2.1
C[C@H]1CN([C@@H](C)CO)C(=O)c2cccc(NC(=O)Nc3cccc4ccccc34)c2O[C@@H]1CN(C)C(=O)NC1CCCCC1	x	1.0
COc1ccccc1NC1CCCCC1NS(=O)(=O)c1ccccc1 (stereo unspecified)	0.0	-0.5
CC(C)(C)NC(=O)c1sccc1C(=O)O	0.4	-0.3
Nc1ccc(NS(=O)(=O)c2ccccc2)cc1	0.3	0.9
Cc1cc(C(=O)Nc2cccc3c2O[C@@H](CN(C)Cc2ccc(Cl)c(Cl)c2)[C@@H](C)CN([C@@H](C)CO)C3=O)n(C)n1	x	1.5
Cc1ccc(S(=O)(=O)N(C)C[C@@H]2Oc3ccc(NC(=O)NC(C)C)cc3C(=O)N([C@H](C)CO)C[C@H]2C)cc1	0.9	-3.2
CC(C)NC(=O)Nc1cccc2c1O[C@H](CN(C)C(=O)Nc1cccc3ccccc13)[C@@H](C)CN([C@H](C)CO)C2=O	x	-5.3
C[C@H](CO)N1C[C@H](C)[C@H](CN(C)C(=O)NC2CCCCC2)Oc2ccc(NS(=O)(=O)c3ccc(F)cc3)cc2C1=O	0.4	0.5
COc1ccc(N2CCN(C(=O)CCNS(=O)(=O)c3ccc(Br)s3)CC2)cc1	x	0.2

Sorted by heavy-atom count (descending): 7 of the compounds above.
SMILES	A1 inhib	BJeLR viability
C[C@@H]1CN([C@@H](C)CO)C(=O)c2cccc(NC(=O)Nc3ccccc3)c2O[C@H]1CN(C)C(=O)Nc1ccc(F)cc1	x	2.1
Cc1cc(C(=O)Nc2cccc3c2O[C@@H](CN(C)Cc2ccc(Cl)c(Cl)c2)[C@@H](C)CN([C@@H](C)CO)C3=O)n(C)n1	x	1.5
Cc1ccc(S(=O)(=O)N(C)C[C@@H]2Oc3ccc(NC(=O)NC(C)C)cc3C(=O)N([C@H](C)CO)C[C@H]2C)cc1	0.9	-3.2
COc1ccc(N2CCN(C(=O)CCNS(=O)(=O)c3ccc(Br)s3)CC2)cc1	x	0.2
COc1ccccc1NC1CCCCC1NS(=O)(=O)c1ccccc1 (stereo unspecified)	0.0	-0.5
Nc1ccc(NS(=O)(=O)c2ccccc2)cc1	0.3	0.9
CC(C)(C)NC(=O)c1sccc1C(=O)O	0.4	-0.3

Not all compounds are listed; count on the stated rates, not on these rows.
